Arbovirus inh: antivirals against arbovirus infection, primary screen, cell-based, full library, 10K replicate subset | inhibition, % at 10 µM | 0.37% of 200,000 active | arbovirus infection cell-based antiviral screen;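 active = inhibition from about 30%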;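 also: bluetongue infection of BSR cells; cell survival read as ATP light after 72 h; 0% = infected wells without compound and 100% = uninfected wells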
Mtb growth: M. tuberculosis H37Rv growth inhibitors, H37Rv strain (AID 1626); inhibition, % at 10 µM; hits with a dose series show IC50 in µM; M. tuberculosis H37Rv growth inhibition; higher % means a stronger effect; 0.95% of 220,000 active;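 active = confirmed in a dose series; inconclusive = inhibition above 80% but not taken into the dose series; inactive = below 80% or under 30% at every dose of the series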;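 also: bacteria incubated seven days before Alamar blue readout; 0% = bacteria only wells and 100% = bacteria with antibiotic wells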
RecA splice inh: Mtb RecA intein splicing inhibitors, primary screen, biochemical, fluorescence, HTS; inhibition, %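 (about 9 µM by stock and volumes)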; 0.75% of 290,000 active; cell-free RecA intein splicing; Protein RecA (Mycobacterium tuberculosis (strain ATCC 25618 / H37Rv)), P9WHJ3; in the data active = inhibition above about 30%; inconclusive = no clear call, values can overlap the other calls;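 also: 0% = vehicle wells and 100% = reference inhibitor control wells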
Target sequence (P9WHJ3 whole entry, looked up, canonical isoform): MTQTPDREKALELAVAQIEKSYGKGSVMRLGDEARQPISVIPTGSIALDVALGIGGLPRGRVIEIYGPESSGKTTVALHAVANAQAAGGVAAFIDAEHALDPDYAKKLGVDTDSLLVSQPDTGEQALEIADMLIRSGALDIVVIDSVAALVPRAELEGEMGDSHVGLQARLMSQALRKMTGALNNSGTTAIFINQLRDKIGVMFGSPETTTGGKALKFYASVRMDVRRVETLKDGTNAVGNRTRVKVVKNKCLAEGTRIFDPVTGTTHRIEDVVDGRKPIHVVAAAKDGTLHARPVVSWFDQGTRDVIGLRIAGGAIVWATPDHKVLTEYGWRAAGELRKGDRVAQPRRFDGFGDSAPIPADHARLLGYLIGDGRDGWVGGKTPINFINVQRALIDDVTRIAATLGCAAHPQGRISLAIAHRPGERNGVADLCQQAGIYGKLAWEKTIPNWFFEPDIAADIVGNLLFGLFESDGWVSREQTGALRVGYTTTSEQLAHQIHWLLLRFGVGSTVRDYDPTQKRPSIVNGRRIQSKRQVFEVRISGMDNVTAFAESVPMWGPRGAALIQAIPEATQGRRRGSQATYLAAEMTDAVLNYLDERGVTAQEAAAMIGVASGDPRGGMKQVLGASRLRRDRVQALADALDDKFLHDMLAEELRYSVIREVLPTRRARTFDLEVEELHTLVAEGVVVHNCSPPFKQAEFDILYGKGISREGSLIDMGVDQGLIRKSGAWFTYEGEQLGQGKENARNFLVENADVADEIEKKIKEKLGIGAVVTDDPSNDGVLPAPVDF
Mtb bLac sens: beta-lactam sensitization of Mtb H37Rv, H37Rv; M. tuberculosis H37Rv growth with meropenem, percent inhibition; hits of this screen are not shown here; inhibition, % at 25 µM; 0.27% of 330,000 active;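 active = about 74% or more and at least 40 points above the plate without the antibiotic, then above 30% in a dose series; inconclusive = first-round hits that could not be retested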;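 also: growth measured after seven days incubation then overnight dye step; 0% = bacteria only wells and 100% = bacteria with antibiotic; twin plates without the antibiotic show which effects depend on it; some results filed as inactive read as strong as hits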
YopH inh: YopH tyrosine phosphatase inhibitors, primary screen, biochemical, fluorescence Ex485/Em525; inhibition, %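 (about 10 µM by stock and volumes)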; AID 898, 2007; 0.16% of 140,000 active;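 active = inhibition of 50% or more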;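 also: controls were vehicle for no effect and minimum signal wells for full effect; inactives centre near -20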
Arbovirus inh repeat: second read-out of Arbovirus inh, no call of its own (marks repeat the call); inhibition, %; measured here: 10K subset replicate screen; many hits read low in the repeat;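 first of two repeat runs on a subset; 0% = infected and 100% = uninfected wells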
Active calls of the source: *; ? = inconclusive; / = no result given. These rows are one share of the data (hit frequency here may not be typical).

Sample of the layout (four entries):
SMILES	Arbovirus inh	Mtb growth	RecA splice inh	Mtb bLac sens	YopH inh	others
COC(=O)c1ccccc1NC(=O)C(C)n1nc(C)c2c(C)n(-c3ccccc3)nc2c1=O (stereo not given)	/	/	97*	-3	/
CCCN1CCC(CCOc2ccccc2)(C(=O)OCC)CC1	/	/	0.7	-2	/
CC(NCc1ccc(S(N)(=O)=O)cc1)C(=O)N1CCc2ccccc21 (stereo not given)	/	1%	2.7	-1	/
O=C(c1ccccc1-c1ncc[nH]1)N1CCc2c([nH]c3ccccc23)C1c1ccccn1 (stereo not given)	4	8%	3.3	-2	/

Results, previewed entries included:
SMILES	Arbovirus inh	Mtb growth	RecA splice inh	Mtb bLac sens	YopH inh	others
COC(=O)c1ccccc1NC(=O)C(C)n1nc(C)c2c(C)n(-c3ccccc3)nc2c1=O (stereo not given)	/	/	97*	-3	/
CCCN1CCC(CCOc2ccccc2)(C(=O)OCC)CC1	/	/	0.7	-2	/
CC(NCc1ccc(S(N)(=O)=O)cc1)C(=O)N1CCc2ccccc21 (stereo not given)	/	1%	2.7	-1	/
O=C(c1ccccc1-c1ncc[nH]1)N1CCc2c([nH]c3ccccc23)C1c1ccccn1 (stereo not given)	4	8%	3.3	-2	/
COc1ccc(CCNC(=O)COc2ccc(S(=O)(=O)NCC(C)C)cc2Cl)cc1OC	-19	-10%	-1.6	-5	-16
Cc1ccc2oc(=O)n(CC(=O)N3CCOCC3)c2c1	/	-17%	1.0	-5	/
COC/C=C/C1=CC2=CC(=O)C(C)(OC(=O)c3cnc4ccccc4n3)C(=O)C2=CN1CC1CC1 (stereo not given)	/	-13%	8.9	0	/
CN(C)CCCn1c2c(c(SCC(=O)Nc3cccc4ccccc34)nc1=O)CCCC2	/	/	2.0	-8	/
CCC1CCCCN1C(=O)c1ccc(OC2CCN(Cc3ccccn3)CC2)cc1 (stereo not given)	/	/	-0.3	1	/
COCCn1c(COC)nc2ccccc21	-1	-2%	0.0	-14	-23
Cc1ccc(NC(=O)CC2(CC(=O)O)CCCC2)cc1	/	/	1.6	4	/
COC(=O)c1ccc(NC(=O)CN2CCN(c3ccc(Cl)cc3)CC2)cc1	-7	6%	0.5	53	-18
CCN(CC)S(=O)(=O)c1cccc(C(=O)Nc2ccc3c(c2)OCO3)c1	-26	-3%	3.3	-11	/
CC(C)(CSc1ccccn1)NS(=O)(=O)c1ccccc1	1	2%	1.4	-3	-26
COc1ccc(N2CCN(S(=O)(=O)c3c(C)n(C)c(=O)n(C)c3=O)CC2)cc1	/	/	-3.4	-9	/
COc1ccc(C(=O)Nc2ccc3cn[nH]c3c2)c(OC)c1	-6	3%	2.0	2	/
O=C(O)c1[nH]c2ccccc2c1C(c1cc(Cl)cc([N+](=O)[O-])c1O)c1c(C(=O)O)[nH]c2ccccc12	/	/	15	5	/
CCOC(=O)c1c(NC(=O)C2CC(Cl)=CCC2C(=O)O)sc2c1CC(C)(C)OC2 (stereo not given)	3	-9%	-1.5	-1	/
O=[N+]([O-])c1ccc(S(=O)(=O)Nc2nc3ccccc3nc2Nc2ccccc2)cc1	2	0%	/	-2	/
CN1CCN(c2ccc(S(=O)(=O)N3CCCCC3)cc2[N+](=O)[O-])CC1	4	0%	1.5	-5	/
COc1cc(C(=O)Nc2ccc(N(C)C)cc2)c([N+](=O)[O-])cc1OC	0	4%	-0.4	-6	/
O=C(N/N=C/c1ccc2c(c1)OCO2)c1ccccn1	-13	26%	-2.2	95	-29
CC(C)Oc1ccc2ccccc2c1C=O	16	/	-5.4	-11	-5
Cc1cc2nc(-c3ccc(SCC(=O)Nc4ccc(S(=O)(=O)NC5CC5)cc4)nc3)[nH]c2cc1C	-26	21%	5.1	-1	-3
CN1C(=S)SC(/[N+]([O-])=C/c2cccnc2)C1(C)C (stereo not given)	6	2%	-3.5	-5	-32
Cc1cc(C)c2ccc(N)nc2c1O	-4	-6%	6.7	-2	-56
O=c1c2c([N+](=O)[O-])cc([N+](=O)[O-])cc2sn1-c1ccc(Br)cc1	-9	0%	/	-3	-5
S=c1[nH]nc(Cn2c(-c3ccccn3)nc3ccccc32)n1-c1ccc2c(c1)OCCO2	/	3%	2.4	-6	/
O=C(NCC1CCCO1)c1nn2c(c1Cl)NC(c1ccc(F)cc1)CC2C(F)(F)F (stereo not given)	0	-5%	/	-4	-30
CNC(=O)C1=NCCCc2cc(OC)c(OC)cc21	4	-16%	-2.0	-8	-1
CC1CCCC(NC(=O)C2CCN(S(=O)(=O)c3cccc4nonc34)CC2)C1C (stereo not given)	/	/	-0.8	1	/
O=C(N/N=C/c1cc(Br)c(O)c(Br)c1)c1cccnc1	/	/	-2.3	9	/
COc1ccccc1CNC(=O)CN1C(=O)NC(C)(c2ccc(C(C)(C)C)cc2)C1=O (stereo not given)	/	/	1.7	-3	/
CNC(=O)c1ccccc1F	8	-7%	-1.6	5	-15
CCOC(=O)c1ccccc1NC(=O)CN(c1cccc(OC)c1)S(C)(=O)=O	1	-5%	-2.2	-3	-15	Arbovirus inh repeat=10
COc1ccc(OCC(=O)N2CCN(C(=O)c3ccccc3)CC2)cc1	3	-3%	1.7	7	-18	Arbovirus inh repeat=13
COc1ccc(Br)cc1S(=O)(=O)Nc1ncccc1C	1	-2%	7.7	-7	/
COC(=O)c1ccc(NC(=O)c2cccc(OC)c2)cc1	1	9%	1.1	4	-8	Arbovirus inh repeat=-2
O=C(NNS(=O)(=O)c1ccc(F)cc1)c1ccc([N+](=O)[O-])cc1	/	/	-0.3	4	/
C=CCN(CC=C)S(=O)(=O)c1ccc(C(=O)Nc2sc3c(c2C(N)=O)CCCCC3)cc1	-40	1%	-64	13	-2

2 records picked at random from the list so far:
SMILES	Arbovirus inh	Mtb growth	RecA splice inh	Mtb bLac sens	YopH inh	others
O=C(NCC1CCCO1)c1nn2c(c1Cl)NC(c1ccc(F)cc1)CC2C(F)(F)F (stereo not given)	0	-5%	/	-4	-30
COc1cc(C(=O)Nc2ccc(N(C)C)cc2)c([N+](=O)[O-])cc1OC	0	4%	-0.4	-6	/

More records:
SMILES	Arbovirus inh	Mtb growth	RecA splice inh	Mtb bLac sens	YopH inh	others
COc1ccc(C(=O)Nc2ccc3c(c2)C(=O)NC3=O)cc1	/	/	-4.1	-2	/
O=C(NCCCN1CCCC1=O)c1ccc(S(=O)(=O)Nc2ccccc2)cc1	/	/	-0.2	-9	/
NC(=O)C1CCN(C(=O)Cc2ccsc2)CC1	/	/	3.7	-1	/
COCCCNC(=O)CN(c1ccc(F)cc1)S(=O)(=O)c1ccc2c(c1)OCCO2	/	/	1.3	-5	/
CCn1c(COc2ccc(Cl)cc2)nnc1SCC(=O)Nc1ccc2c(c1)OCO2	-6	5%	3.4	-2	-47
COC(=O)c1cn[nH]c1N	-2	-6%	/	16	-40
CC1(C)C(=O)N(c2ccccc2Cl)C(=O)c2ccccc21	/	/	-0.5	-10	/
COc1ccc2oc(C(=O)N3CCN(C(c4ccccc4)c4ccccc4)CC3)c(C)c2c1	/	/	0.7	-3	/
Nc1ccccc1-c1nnn(CC(=O)N2CCCc3ccccc32)n1	-18	2%	0.5	-4	-29
O=C1CN(C(=O)COC(=O)c2cccc(OCc3ccccc3)c2)c2ccccc2N1	2	11%	-0.4	-4	-29
CC(NCCC1(C(C)C)CCOC(C)(C)C1)c1cccs1 (stereo not given)	/	-1%	-0.2	-4	/
COc1cccc2c1OCC(CN1CCN(CCC(C)C)C(CCO)C1)=C2 (stereo not given)	-10	-5%	2.2	-5	/
COc1ccc(/C=C/C(=O)OCC(=O)c2ccc(S(=O)(=O)N3CCCCC3)cc2)cc1OC	/	/	2.6	3	/
O=[N+]([O-])c1cnn(-c2nc(-c3ccco3)cc(C(F)(F)F)n2)c1	-1	-2%	0.8	1	/
Cn1c(N2CCNCC2)nc2ccccc21	-2	-6%	-2.4	-7	21
COc1ccc(CNC(=O)Cc2cn(C)c3ccccc23)c(OC)c1	/	/	0.2	7	/
O=C(Nc1cccc(S(=O)(=O)N2CCCCC2)c1)c1c2c(nc3ccccc13)CCN(Cc1ccccc1)C2	-16	-1%	-0.1	46	-2
Cc1nc2cc(C(=O)N3CCc4ccccc43)ccc2n1-c1ccc(F)c(F)c1	-6	4%	3.4	11	-24
O=C1N/C(=N\N=C\c2cccs2)SC1Cc1cccc(Cl)c1 (stereo not given)	-21	?	1.5	38	-29
O=C(COC(=O)CCNS(=O)(=O)c1cccc(C(F)(F)F)c1)NC(=O)NC1CCCCC1	2	2%	-2.2	-3	-21
Cc1cc(S(=O)(=O)N2CCCC(C(=O)Nc3ccc(C(=O)O)cc3)C2)ccc1Cl (stereo not given)	5	4%	1.5	1	/
CC1CCCN(C(=O)CSc2n[nH]c(-c3cccs3)n2)C1 (stereo not given)	/	/	-0.9	1	/
Cc1ccc(O)c(NC(=O)C2CCCCC2)c1	/	11%	-2.9	-5	/
O=C(Oc1c(Br)cc([N+](=O)[O-])cc1Br)c1cccnc1	14	0%	/	8	-36
CCOc1ccc(N(C)S(=O)(=O)c2ccc3[nH]cc(C(=O)NCCOC)c(=O)c3c2)cc1	-3	-13%	2.0	67	/
CC(C)CSC1=NSC2=NC(=O)/C(=C\c3cccs3)C(=N)N12	48*	-1%	3.6	0	-35
Cc1ccc(C(=O)N2CCC3(CC2)Oc2ccc(Cl)cc2C(=O)C32CC(c3ccc(Cl)cc3)=NO2)s1 (stereo not given)	/	-5%	-0.2	-1	/
CCOC(=O)c1c(NC2=NS(=O)(=O)c3ccccc32)sc2c1CCC(C)C2 (stereo not given)	-5	14%	-25	55	-42
CCn1c(C(C)NC(=O)c2ccc(Cl)cc2)n[nH]c1=S (stereo not given)	0	/	2.2	0	/
O=C(C1=C[C@@H](C2CCCCC2)C[C@@H](OCc2ccc(CO)cc2)O1)N1CCN(Cc2ccc3c(c2)OCO3)CC1	-17	14%	-0.7	22	/
CCOc1cccc(/C=N/N2C(C)CCCC2C)c1O (stereo not given)	/	/	1.3	0	/
CCOCCCNC(=S)N1CCC(C(=O)c2ccc(C)cc2)CC1	/	/	1.1	-3	/
COc1cc(/C=N/NS(=O)(=O)c2ccc(C(C)(C)C)cc2)cc([N+](=O)[O-])c1O	7	1%	/	2	/
COc1ccc(-n2cc(-c3ccccc3)[n+]3c2CCCCC3)cc1	4	0%	-1.1	-4	/
CCc1ccc(-n2c(=O)c3c(C)c(C(=O)N(C)C)sc3n(CC(=O)NCc3ccco3)c2=O)cc1	0	-8%	1.8	-1	-24
O=C(NCc1ccc2c(c1)OCO2)c1ccco1	-3	9%	-2.7	3	/
COc1ccc(NC(=O)CN2CCN(C(=O)N3CCOCC3)CC2)cc1	/	/	0.7	-3	/
O=C(O)c1ccc(N=Cc2nc(-c3ccco3)oc2O)cc1	16	3%	1.7	28	/
Cc1nn(-c2cc(N3CCCCCC3)ccc2[N+](=O)[O-])c(=O)c2ccccc12	-7	0%	-1.9	-15	-12
COc1ccc(-c2nnc(SCc3c(C)noc3C)n2N)cc1OC	1	-4%	-1.1	-5	-42

Next part; it opens with the two that closed the last part.
SMILES	Arbovirus inh	Mtb growth	RecA splice inh	Mtb bLac sens	YopH inh	others
Cc1nn(-c2cc(N3CCCCCC3)ccc2[N+](=O)[O-])c(=O)c2ccccc12	-7	0%	-1.9	-15	-12
COc1ccc(-c2nnc(SCc3c(C)noc3C)n2N)cc1OC	1	-4%	-1.1	-5	-42
CC(C)C1CC(c2ccccc2)(C(CN)CO)CCO1 (stereo not given)	7	3%	-2.8	0	/
CCc1cc2cccc(C)c2nc1SCC(=O)Nc1cc(C)on1	-1	-6%	-5.6	3	/
Cc1cc(C)cc(C(=O)NCC(=O)OCC(=O)N2c3ccccc3NC(=O)C2(C)C)c1	-3	3%	6.6	1	-31
COC(=O)[C@@]12CCCN1[C@H](c1ccc(-c3ccc(OC)cc3)c(OC)c1)[C@H]1C(=O)N(C)C(=O)[C@H]12	/	/	-0.7	-7	/
O=C1CC(c2ccco2)CC(O)=C1C=Nc1cc(Cl)cc(Cl)c1 (stereo not given)	-1	-1%	-2.6	4	-13
CCn1c(SCC(=O)Nc2sc3c(c2C#N)CCCC3)nnc1-c1ccco1	3	1%	0.9	-9	8
Cc1ccc([N+](=O)[O-])cc1S(=O)(=O)Nc1cccc(-c2ccc(N3CCOCC3)nn2)c1	/	/	1.2	-2	/
COc1cc(OC)c(OC)cc1CNCCc1cccc(F)c1	/	/	0.5	1	/
O=C1CCCN2N=C(SCC(=O)Nc3ccc(Br)cc3)SC2=N1	/	/	-2.9	5	/
CCCCNC(=O)c1cc2c(=O)n3cccc(C)c3nc2s1	/	/	-12	6	/
CCCCc1nc2ccccc2[nH]1	-1	3%	-2.5	-6	/
Cn1c(-c2nnn(-c3ccc(F)cc3)n2)cc2ccccc21	5	-8%	-2.3	0	/
Cc1cc(C)nc(NN2C(=O)/C(=C/c3ccccc3)SC2=S)n1	-3	-8%	/	44	-10
